Vaccinia mCherry: inhibitors of vaccinia virus infection (mCherry reporter signal); Vaccinia virus mCherry reporter infection, fluorescence; about a quarter of the inactives have no number; Potency, µM (highest dose often 36.5 µM), without a hit: at the highest dose activity change, negative = inhibition, usual class: inhibitors; hit rate 0.63% among 310,000; AID 720579; active = well fitted inhibition curve with a large enough effect; inconclusive = small, poorly fitted or top-dose-only effect; inactive = no such curve, though single readings can be large or run the other way; tested in A549 cells; note: nearly all actives have a fitted effect of over 35% in size; inactives centre near -10
VACV Venus inh: vaccinia inhibition (Venus reporter). Vaccinia virus Venus reporter expression, fluorescence. Potency, µM (doses to about 36.5 µM), without a hit: at the highest dose activity change, negative = inhibition, hits mostly inhibitors. hit rate 0.46% among 330,000. AID 720580; active means well fitted inhibition curve with a large enough effect; inconclusive means small, poorly fitted or top-dose-only effect; inactive means no such curve, though single readings can be large or run the other way; tested in A549 cells; note: nearly all actives have a fitted effect of over 30% in size; inactives centre near -10
The depositor's hits bear a star; i = inactive; u = inconclusive; x = no result given; [ ] = dose if it differs, or a comment. % is set by controls: 0 for no effect and ±100 for the full control effect; potency is the fitted concentration of half-maximal effect.

SMILES | Vaccinia mCherry | VACV Venus inh
O=S(=O)(c1ccc(F)cc1)N1CCN(CC(O)COc2ccccc2F)CC1 (stereo not given) | -24% | -17%
O=C(Nc1ccccc1C(=O)N/N=C/c1ccccc1)c1ccco1 | -9% | -17%
COc1cc(C(=O)NNC(=S)NC(=O)c2ccccc2C)cc(OC)c1OC | u | u
Cc1ccc(-c2csc(NC(=S)NC(=O)c3cc4ccccc4o3)n2)cc1 | -17% | -12%
CC1CN(CC(=O)NCC2(N3CCOCC3)CCCC2)Cc2cc(Cl)ccc2O1 (stereo not given) | -8% | -11%
COc1c(/C=N/Nc2nc(N3CCCCC3)nc(N3CCCCC3)n2)cccc1[N+](=O)[O-] | -2% | -11%
Cc1ccc(-n2ncc(C(=O)NC3CCCCC3)c2C2CCN(C(=O)OC(C)(C)C)CC2)cc1 | i | -1%
CC(=O)Nc1ccc(N2C(=O)c3cccc4c(O)ccc(c34)C2=O)cc1 | i | 272%[activator]
CCN1CCN(Cc2ccc(NC(=O)c3ccc(C)c(NC(=O)c4ccc5n[nH]nc5c4)c3)cc2C(F)(F)F)CC1 | i | -20%
COc1ccccc1CNC(=O)CN1C(=O)c2ccc([N+](=O)[O-])cc2C1=O | -5% | 1%

Further entries
SMILES | Vaccinia mCherry | VACV Venus inh
CCOc1ccc(S(=O)(=O)n2cc(F)c(=O)[nH]c2=O)cc1 | -21% | -6%
O=C(OCc1cc(=O)n2nc(-c3cccs3)sc2n1)c1ccccc1Br | -6% | -6%
COc1ccccc1N1CCN(CC(=O)Nc2ccc(-n3cnnn3)cc2)CC1 | -11% | 1%
Cc1ccc(SCC(=O)Nc2nnc(-c3ccco3)o2)cc1 | -20% | -7%
CCCNC(=O)c1onc(CSc2ccc(Cl)cc2)c1C(=O)NCC1CC1 | -8% | -16%
Cc1n[nH]c(=S)c2nn(-c3ccccc3F)c(C)c12 | x | -9%
C=CCN(CC=C)S(=O)(=O)c1ccc(NC(=S)NC(=O)C2CC2)cc1 | -26% | -25%
CCOP(=O)(C#CC(C)(C)C)C(O)(c1ccccc1)C(F)(F)F (stereo not given) | x | -6%
CCCn1ccc2c(OCC(=O)Nc3ccccc3OCC)cccc2c1=O | -11% | -22%
CSc1nnc2c(n1)OC(c1ccccn1)N(C(C)=O)c1ccccc1-2 (stereo not given) | i | 1%

Single records (already shown). Order of screens: Vaccinia mCherry, VACV Venus inh
CCCNC(=O)c1onc(CSc2ccc(Cl)cc2)c1C(=O)NCC1CC1 reads -8%, -16%
Cc1ccc(SCC(=O)Nc2nnc(-c3ccco3)o2)cc1 reads -20%, -7%
O=C(OCc1cc(=O)n2nc(-c3cccs3)sc2n1)c1ccccc1Br reads -6%, -6%

Additional compounds.
SMILES | Vaccinia mCherry | VACV Venus inh
c1cnc2[nH]ccc2c1 | i | -14%
CC(=O)c1ccc(F)c(-c2cc(C)cc3c2OC(CNC(=O)Cc2ccc4c(c2)OCO4)C3)c1 (stereo not given) | -7% | -7%
Cc1ccc(S(=O)(=O)c2nnn3c2nc(N2CCC(C(N)=O)CC2)c2cc(Cl)ccc23)cc1C | u | u
Cn1nc(C(C)(C)C)cc1C(=O)N1CCCCC1c1cc(C(=O)Nc2cccc3c2CCCC3)no1 (stereo not given) | i | -24%
CCNS(=O)(=O)c1ccc(NC(=O)c2c(-c3ccccc3)noc2C)cc1 | i | -8%
Nc1nc(NCC2CCCO2)nc(Nc2cccc(Cl)c2)c1[N+](=O)[O-] (stereo not given) | -8% | -8%
CCn1c(SCC(N)=O)nc2ccccc2c1=O | -20% | -11%
O=C(NNC(=S)Nc1cccc(C(F)(F)F)c1)c1ccc(Cl)cc1Cl | u | u
CCOCCCNC(=O)Cn1cc2c(n1)CCCCC2 | -6% | -6%
CCn1c(CCNS(=O)(=O)c2ccccc2Br)nnc1SC | -2% | -3%

More structures.
SMILES | Vaccinia mCherry | VACV Venus inh
COc1cc(=O)n2c(c1C(=O)NCc1ccco1)CCN(C(=O)c1c(F)ccc(F)c1F)CC2 | i | 0%
COc1cc(/C=N\NC(=O)c2ccccc2F)ccc1Oc1ccc([N+](=O)[O-])cn1 | u | -30%
Cc1cc(NC(=O)C(C)SCC(=O)OCc2ccc([N+](=O)[O-])cc2)no1 (stereo not given) | i | -2%
CCOc1c2ccc(C(=O)NC3CCCc4ccccc43)cc2nn1CC (stereo not given) | i | -22%
CCOc1cc(C(=O)OCc2cccc(OC)c2OC)ccc1OCC(=O)N1CCOCC1 | -13% | -13%
CCn1c(COC(=O)CNC(=O)c2ccccc2F)nc2cc(S(=O)(=O)N(C)C)ccc21 | -10% | -9%
COc1ccccc1NS(=O)(=O)c1cccc(C(=O)NCC(c2ccco2)N2CCCCC2)c1 (stereo not given) | -26% | -26%
CCOc1ccccc1C(=O)Nc1cccc(-c2ccc(N3CCOCC3)nn2)c1 | -28% | -25%
CC1CCCCC1NC(=S)NC(=O)c1ccccc1Cl (stereo not given) | -12% | -20%
CCCNC(=O)c1ccc(N2CCC3(CC2)CC(c2cccc(Br)c2)=NO3)c(NC(=O)c2cccc(OC)c2)c1 | -4% | -16%

More results:
SMILES | Vaccinia mCherry | VACV Venus inh
Cc1nc2c(c(C)nn2-c2ccccc2)c(C)c1CCC(=O)Nc1ccccc1 | -15% | -13%
O=C(COc1ccccc1)N1CCN(C(=O)c2cccs2)CC1 | x | -5%
CCN(CC)c1ccc(/C=N/N2CCN(Cc3ccccc3)CC2)cc1 | u | 0%
CC1CCN(c2ccccc2NC(=O)c2ccc(N3CCOCC3)c([N+](=O)[O-])c2)CC1 | -15% | -13%
CC1=NOC(=O)/C1=C\c1ccc(-c2cccc(Cl)c2)o1 | u | -40%
COc1ccc(-c2nc(CN3CCC(C(=O)N4CCOCC4)CC3)c(C)o2)c(OC)c1 | -11% | -11%
CCN1CCN(CC(=O)Nc2cccc(C)c2)C(=O)C1=O | -19% | 0%
Nn1c(=O)c2ccccc2n2c(SCc3ccc(C(F)(F)F)cc3)nnc12 | i | -20%
CC(=O)Nc1ccc(N2C(=O)c3ccc(S(=O)(=O)c4ccc(C(=O)O)cc4)cc3C2=O)cc1 | -12% | -13%
C(=N\c1ncnc2sccc12)/NOCc1ccccc1 | x | u

Carrying on.
SMILES | Vaccinia mCherry | VACV Venus inh
CN(C)c1ccc(/C=N\NC(=O)CC#N)cc1 | i | -3%
Cc1nnc(SCC(=O)Nc2ccc(Br)cc2)[nH]c1=O | -5% | -6%
CC(C)N(Cc1ccccc1)C(=O)COC(=O)c1cnccn1 | i | -6%
COc1ccc(S(=O)(=O)NCCSCc2ccco2)cc1Cl | x | -13%
CC(C(N)=O)N1c2cccc3cccc(c23)S1(=O)=O (stereo not given) | -11% | -9%
Cc1cccc(OCc2nnc(SCC(=O)N3c4ccccc4CCc4ccccc43)o2)c1 | -9% | -16%
O=C(NCc1ccco1)c1cccc2c1C(=O)c1ccc(N3CCCC3)cc1S2(=O)=O | -1% | 4%
CC(=O)Nc1cnc(-c2ccccc2O)cn1 | -25% | u
Cc1ccc(-c2csc3ncnc(Oc4cccc5ccc(C)nc45)c23)cc1 | -11% | -19%
COc1cc(Nc2nc3ccc(Cl)cc3nc2-n2nc(C)cc2C)cc(OC)c1 | -15% | -6%

(cont.)
SMILES | Vaccinia mCherry | VACV Venus inh
COC(=O)c1ccc2nc(-c3ccc(C)cc3)c(Cc3cccc(Cl)c3)n2c1 | -8% | -5%
CCOc1ccc(N2CC(=O)N/C2=N\c2nc(C)cc(C)n2)cc1 | x | -8%
O=C(Nc1ccc2c(c1)OCO2)c1ccc(COc2ccc3c(c2)CCC3)o1 | -23% | -10%
O=C(C[n+]1ccccc1)c1cccc([N+](=O)[O-])c1 | -12% | -5%
COC(=O)c1cn(CC(=O)N2C(C)CCCC2C)c2ccccc12 (stereo not given) | i | -19%
CCCc1nnc(SCC(=O)Nc2ccccc2Cl)n1CC1CCCO1 (stereo not given) | -5% | -14%
CC(C)Cn1c2c(c(O)c(C(=O)Nc3ncccc3O)c1=O)CCCC2 | x | -29%
OC1(c2cccnc2)CCN(Cc2ccc3c(c2)CN(Cc2cccc(C(F)(F)F)c2)CCO3)CC1 | -27% | -24%
C[C@@H]1CN([C@H](C)CO)C(=O)c2cc(Br)cnc2O[C@H]1CN(C)Cc1cccnc1 | 0% | 2%
O=C(CCCCC(=O)Sc1ccccc1)Sc1ccccc1 | -14% | -7%

Additional results follow.
SMILES | Vaccinia mCherry | VACV Venus inh
COc1ccc(-n2ncc3c2CC(C)(C)CC3NC(=O)c2oc(C)cc2C)cc1 (stereo not given) | -9% | -11%
COc1ccc(N2CCN(C(=O)c3c(-c4c(F)cccc4Cl)noc3C)CC2)cc1 | -2% | -21%
CC(C)(C)C1c2[nH]c3ccccc3c2CCN1CCCn1cccn1 (stereo not given) | -16% | -11%
Cc1cccc(C)c1-n1nnnc1C1(C)CCC(=O)N1CCCn1ccnc1 (stereo not given) | 7% | 2%
O=C(NCCO)c1cccc(-c2cnc3cccnn23)c1 | -4% | 3%
C=Cc1ccc(Cn2c(C)c(CNCc3cccc(Br)c3)c(C(=O)O)c2C)cc1 | -20% | -12%
O=C1CCCC2=C1C(c1ccc(Cl)cc1)N1C(=O)CCSC1=N2 (stereo not given) | -9% | -6%
CCCOc1ccc(N2C(=O)CC(NCCNc3ccc([N+](=O)[O-])cn3)C2=O)cc1 (stereo not given) | -12% | -10%
S=C(Nc1ccccc1Cl)N1CCN(c2ccccn2)CC1 | -5% | -27%
COC(=O)C[C@H]1CC[C@@H](NS(=O)(=O)c2ccc(C)cc2)[C@@H](CO)O1 | -6% | 0%

Some of the entries above in a different format.
CCN(CC)c1ccc(/C=N/N2CCN(Cc3ccccc3)CC2)cc1
- Vaccinia mCherry: u
- VACV Venus inh: 0%
CC1CCN(c2ccccc2NC(=O)c2ccc(N3CCOCC3)c([N+](=O)[O-])c2)CC1
- Vaccinia mCherry: -15%
- VACV Venus inh: -13%

Next results follow.
SMILES | Vaccinia mCherry | VACV Venus inh
C=CCOc1ccc(/C=N/NC(C)=O)cc1OCC | -12% | -6%
COc1cc(NC(=O)CCNC(=O)Cn2cnc3ccccc3c2=O)cc(OC)c1OC | -1% | -2%
C=CCNc1ncnc2c1ncn2[C@H]1CN(Cc2ccc(F)cc2)C[C@@H](CO)O1 | -8% | 3%
CCOc1ccc(N(CC(=O)NCCOc2ccccc2OC)S(=O)(=O)c2ccccc2)cc1 | -17% | -24%
O=c1oc2ccc(C#CC3(O)CCCCC3)cc2cc1-n1cc(-c2ccsc2)nn1 | -9% | -13%
CCc1ccccc1NC(=O)CN(c1cccc(C)c1C)S(C)(=O)=O | -9% | -8%
CCOc1ccc(N2CC(c3nc4ccccc4n3CCC3CCCCC3)CC2=O)cc1 (stereo not given) | u | u
CCCCCCCC(=O)NNC(=O)CC(=O)Nc1ccccc1C(=O)O | -7% | -15%
Oc1ccc(-c2[nH]ncc2-c2cccc3cccnc23)c(O)c1 | -15% | -28%
O=C(O)c1[nH]c(-c2ccccc2)c2c1C(=O)N(C1CC1)C2=O | 10% | -4%

Next entries:
SMILES | Vaccinia mCherry | VACV Venus inh
O=C(Nc1ccccc1)C1C(c2ccccc2)C1(Cl)Cl (stereo not given) | -13% | -2%
CC(C)(Oc1ccc(Cl)cc1)C(=O)NNC(=O)c1ccc(Br)o1 | i | -4%
O=C(Nc1ccc2ccccc2n1)c1ccccc1Br | -17% | 21%
COc1cccc(CN(C)C(=O)c2ccc(COc3ccc(Cl)cc3)cc2)c1OC | -14% | -14%
COC(=O)c1ccc(NC(=O)c2ccc[n+]([O-])c2)cc1 | 14% | 13%
CCC(Cc1ccccc1)NC(=O)/C=C/c1ccco1 (stereo not given) | -3% | -14%
COC(=O)c1ccc(/C=N/OCC(=O)Nc2cc(F)ccc2F)cc1 | i | -16%
O=C(OCc1cccc(C(F)(F)F)c1)c1cc([N+](=O)[O-])ccc1N1CCOCC1 | -5% | -8%
C=CCNc1nc(-c2ccc([N+](=O)[O-])cc2)cs1 | u | -23%
COc1cc(/C=C2\SC(=S)N(NC(C)=O)C2=O)ccc1OC(=O)c1ccco1 | 223%[activator] | x

Continued.
SMILES | Vaccinia mCherry | VACV Venus inh
CCc1ccccc1NC(=O)c1cc2nc(-c3ccc(Br)cc3)cc(C(F)(F)F)n2n1 | -3% | -12%
O=S(=O)(O)c1cc2onnc2c2ccccc12 | -19% | 11%
O=C(c1cc(-c2ccco2)on1)N1CCOCC1 | -8% | -11%
COC(=O)c1ccccc1NC(=O)CCC(=O)N1CC(C)Sc2ccccc21 (stereo not given) | -7% | -7%
CCCCNC(=O)NC(C(=O)OC)C12CC3CC(CC(C3)C1)C2 (stereo not given) | -15% | 6%
CCC(Sc1nnc(C)n2c1cc1occc12)C(=O)Nc1ccccc1F (stereo not given) | -6% | -10%
COc1cccc(CSc2nnc(-c3ccncc3)n2N)c1 | -5% | -4%
O=C(NCc1ccccc1)C1=C[C@@H](c2ccccc2)C[C@@H](OCc2ccc(CO)cc2)O1 | u | -13%
C=CCSc1ncnc2c1oc1nc3c(cc12)COC(C)(C)C3 | i | 6%
COCCCNc1oc(-c2ccc(COc3ccccc3C)o2)nc1C#N | -9% | -15%

(listing goes on)
SMILES | Vaccinia mCherry | VACV Venus inh
COc1ccc(-c2cn[nH]c2N)cc1 | -15% | -4%
C=CCNC(=S)NNC(=O)c1ccc(=O)n(Cc2ccccc2)c1 | -11% | -6%
Cc1ccc(NC(=O)Nc2ccccc2C#N)c(Cl)c1 | -6% | -20%
N#Cc1ccc(OCc2nnc(SCC(=O)c3ccccc3)n2-c2ccccc2)cc1 | -21% | -7%
CN(C)c1ccnc(-n2cccc2/C=N/O)c1C#N | i | 0%
